Screens as filed in PubChem.
Measles inh = inhibitors of measles virus growth in infected cells; z-score (no concentration beside the values); 33,000 compounds, 0.1% hits; infected Vero cells, GFP fluorescence, 64 h; hits give low values;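 active = z-score under -3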;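 note: score is relative to mean and SD of the compound wells of a plate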
* hit, by the source's call. Some of the compounds tested. The share of hits here may be higher or lower than overall.

molecule,Measles inh
COc1ccc(-c2noc(CCC(=O)Nc3ccc(C(C)C)cc3)n2)cc1,-1
COc1ccc(CCNC(=O)Cn2c(=O)n(-c3ccccc3)c(=O)c3c4c(sc32)CCC4)cc1OC,2
O=C(Nc1cccc2ccccc12)C1Cc2ccccc2CN1S(=O)(=O)c1ccc(F)cc1 (configuration not stated),0.66
CCOC(=O)c1c(N=Cc2cc([N+](=O)[O-])ccc2Cl)sc2c1CCCC2,1.1
CCOc1ccccc1N1CCN(S(=O)(=O)c2ccc(C3CCCCC3)cc2)CC1,-0.26
CCOC(=O)CN1C(=O)COc2ccc(Cl)cc21,-1
O=C1c2cccc3cccc(c23)C(=O)N1CC1CCN(S(=O)(=O)c2cccs2)CC1,0.75
O=C(CCCn1c(=S)[nH]c2ccccc2c1=O)N1CC=C(c2ccccc2)CC1,0.16
O=c1c2c3c(sc2n2c(=S)[nH]nc2n1Cc1ccccc1)CCC3,-0.75
CCOC(=O)c1nn(-c2ccccc2)c(=O)c2c(NC(=O)CC(C)C)scc12,-0.61
COc1ccc(C(=O)N=c2sc3cc(F)ccc3n2C)cc1OC,1.1
CCS(=O)(=O)N1CCC(C(=O)Nc2ccc(C)cc2)CC1,1.4
CC(C)OCCCNC(=O)c1cc(Sc2ccc(F)cc2)nc2ccccc12,0.47
Cc1ccc(N2C(=O)CC(NCc3ccccc3F)C2=O)cc1 (configuration not stated),0.5
Cc1nc(N(C)c2ccc(C(C)C)cc2)c2c(C)c(C(=O)NCC3CCCO3)sc2n1 (configuration not stated),-0.34
COc1ccccc1-c1cc(C(=O)Nc2ccc(C)cc2)no1,1
COC(=O)c1ccc(C2/C(=C(\O)c3ccccc3)C(=O)C(=O)N2CCO)cc1 (configuration not stated),-0.11
O=C(NCCc1ccc(Cl)cc1)c1ccc(NC(=O)C2CCCO2)cc1 (configuration not stated),-0.48
O=C(NCc1ccccc1)c1cccc(-n2c(=S)[nH]c3cc(Cl)ccc3c2=O)c1,-0.86
CC(C)OCCCNC(=O)c1ccc2c(c1)NC(=O)C(N1CCCC1)S2 (configuration not stated),-0.12
CCn1c(=O)c(C(=O)NCc2ccccc2)c(O)c2ccccc21,0.52
COc1ccc(C2/C(=C(\O)c3ccc(C)cc3)C(=O)C(=O)N2CC(C)O)cc1OC (configuration not stated),0.34
O=C(Nc1ccccc1)c1ccc(Br)c(S(=O)(=O)Nc2ccc(Br)cc2)c1,-1.1
CCCNC(=O)c1cnn2c(C)c(Cc3ccccc3Cl)c(C)nc12,1.3
CCOC(=O)c1c(C)oc2c1c1c(c3ccccc32)OCN(CCC2=CCCCC2)C1,0.03
CCCCNS(=O)(=O)c1ccc(NC(=O)c2c(-c3ccccc3)noc2C)cc1,-0.62
CCCNC(=O)c1ccc(S(=O)(=O)c2ccc(OC)cc2)c([N+](=O)[O-])c1,-1.1
O=C(c1cc2nc(-c3cccs3)cc(C(F)(F)F)n2n1)N1CCN(c2ccccc2)CC1,0.38
CS(=O)(=O)n1c(SCC(=O)c2ccc(Cl)cc2)nc2ccccc21,-0.7
COc1cccc2cc(-c3nc4ccccc4s3)c(=O)oc12,-0.11
Nc1ccccc1NC(=O)c1ccc(C(F)(F)F)cc1,-0.75
N#CCN1CCN(CC(=O)Nc2ccc(OC(F)(F)F)cc2)CC1,-0.46
Cc1ccc(C)c(N2CCN(C(=O)CC3Nc4c5ccccc5nc(=S)n4C3=O)CC2)c1 (configuration not stated),0.98
O=C(NC(C(=O)O)c1ccccc1)c1cc2ccccc2o1 (configuration not stated),0.68
CCOC(=O)c1[nH]c2ccccc2c1NC(=O)Cc1cccc2ccccc12,-0.63
O=C(NCC12CC3CC(CC(C3)C1)C2)c1ccc(S(=O)(=O)N2CCOCC2)cc1,-0.23
CN1CCN(C(=O)c2cc3c(=O)n(C)c4cc(Cl)ccc4c3s2)CC1,0.08
Cn1c(NC(=O)COc2ccc(Cl)cc2)cc(=O)n(C)c1=O,2.2
CCOc1ccc(-n2nc3ccc(NC(=O)c4ccc(C(C)(C)C)cc4)cc3n2)cc1,-0.49
O=C(Nc1ccc(-c2nc3ccccc3o2)cc1)c1ccc([N+](=O)[O-])o1,-0.96
Cc1cc(C)cc(-n2nc3c(c2NC(=O)c2ccccc2[N+](=O)[O-])CSC3)c1,-0.49
O=C(Nc1ccc2nn(-c3ccccc3)nc2c1)c1cc([N+](=O)[O-])ccc1Cl,-1.3
O=C(Nc1ccc(Cl)cc1)c1ccc(F)c(S(=O)(=O)N2CCOCC2)c1,-0.05
COc1ccc(Cl)cc1NC(=O)CCn1c(=S)oc2ccccc21,1.7
Cc1ccc2oc(-c3cc(NC(=O)c4ccc([N+](=O)[O-])o4)ccc3O)nc2c1,0.9
CCOc1ccccc1NC(=O)c1ccc(F)c(S(=O)(=O)NCc2ccc(C)cc2)c1,-0.68
CC(O)c1ccc(NC(=O)c2cnn3c2NC(c2ccco2)CC3C(F)(F)F)cc1 (configuration not stated),0.45
COc1cc(NS(=O)(=O)c2ccc(NC(=O)c3ccc(OC)c(Br)c3)cc2)nc(OC)n1,-0.06
O=C(CN1C(=O)C2C3C=CC(C3)C2C1=O)N1CCN(c2cccc(Cl)c2)CC1 (configuration not stated),-0.42
COc1cccc(C(=O)Oc2cccc(N3C(=O)C4C5CCC(C5)C4C3=O)c2)c1 (configuration not stated),-0.04

As entered above:
Measles inh with CC(O)c1ccc(NC(=O)c2cnn3c2NC(c2ccco2)CC3C(F)(F)F)cc1 (configuration not stated) is entered as 0.45
Measles inh with O=C(CN1C(=O)C2C3C=CC(C3)C2C1=O)N1CCN(c2cccc(Cl)c2)CC1 (configuration not stated) is entered as -0.42

Arranged by heavy-atom count (lowest first): four of the compounds above
molecule,Measles inh
Nc1ccccc1NC(=O)c1ccc(C(F)(F)F)cc1,-0.75
COc1ccc(Cl)cc1NC(=O)CCn1c(=S)oc2ccccc21,1.7
CCCNC(=O)c1ccc(S(=O)(=O)c2ccc(OC)cc2)c([N+](=O)[O-])c1,-1.1
O=C(NCC12CC3CC(CC(C3)C1)C2)c1ccc(S(=O)(=O)N2CCOCC2)cc1,-0.23

(listing goes on)
molecule,Measles inh
CC1CCCCC1NC(=O)c1cc(=O)[nH]c2ccccc12 (configuration not stated),-0.6
O=C(NCc1ccccc1Cl)c1c[nH]c2ccc(S(=O)(=O)Nc3cccc(C(F)(F)F)c3)cc2c1=O,-0.71
CCOc1ccccc1NC(=O)C1=C(C)NC(=O)NC1c1cccc(OC)c1OC (configuration not stated),-0.07
CCOc1ccc(/C(O)=C2\C(=O)C(=O)N(CCN3CCOCC3)C2c2ccc(C)cc2)c(C)c1 (configuration not stated),-0.61
CCCOC(=O)C(C)Oc1ccc2c(=O)c(Oc3ccc(OC)cc3)coc2c1 (configuration not stated),-1.4
COc1ccc(Br)cc1C1CC(=O)Nc2cc3c(cc21)OCO3 (configuration not stated),-0.44
CC(C)(C)P1(=O)OCc2ccccc2CO1,-0.44
COc1ccc(-c2nc(N3CCC(C)CC3)c3ccccc3n2)cc1OC,0.01
COC(=O)C(NC(=O)c1ccco1)(Nc1nc(C2CC2)cs1)C(F)(F)F (configuration not stated),0.08
COc1ccc2nc3sc(C(=O)N4CCN(c5ccccc5OC)CC4)cc3cc2c1,0.17
Oc1ccc2ccccc2c1C1Nc2cccc3cccc1c23 (configuration not stated),0.29
Cc1cc(NC(=O)CSc2nc3ccsc3c(=O)n2C2CCCCC2)no1,-1.7
Cc1cccc(-n2nnc(C(=O)NCc3ccccc3)c2N)c1,-0.32
Cc1cc(C)cc(-n2ccnc2SCC(=O)Nc2ccc([N+](=O)[O-])cc2)c1,0.65
CCOC(=O)C1Cn2c(nc3c(c2=O)C2(CCCC2)Cc2ccccc2-3)S1 (configuration not stated),0.53
O=C1C(=O)N(c2cccnc2)C(c2ccc(Br)cc2)/C1=C(\O)c1ccc(Cl)cc1 (configuration not stated),-0.77
CCOc1ccc(NS(=O)(=O)c2ccc3[nH]cc(C(=O)NCc4ccc5c(c4)OCO5)c(=O)c3c2)cc1,0.26
CC1CN(c2ccc([N+](=O)[O-])cc2)CC(C)O1 (configuration not stated),-0.2
COc1cc(NC(=O)c2cccs2)c(OC)cc1Cl,-0.47
CC1=C(C(=O)Nc2ccc(C)cc2)C(c2ccc(Br)cc2)NC(=O)N1 (configuration not stated),0.97
O=C(O)c1[nH]c2ccc(Cl)cc2c1CC(=O)N1CCCc2ccccc21,0.94
CC(C)(Oc1ccc(Cl)cc1)C(=O)Nc1ccc(S(=O)(=O)Nc2ncccn2)cc1,-0.68
Cn1c(COc2ccc(Br)cc2)nc2ccccc21,-1.4
CSCCC(NC(=O)C1CCC(C)CC1)C(=O)Nc1ccc2c(c1)OCCO2 (configuration not stated),-1.1
Cc1ccc(-n2nc3c(c2NC(=O)c2ccc(Cl)c([N+](=O)[O-])c2)CS(=O)(=O)C3)cc1,0.34

Continued:
SMILES | Measles inh
Cn1c(=O)c2c(nc(NCc3ccccc3)n2Cc2ccccc2Br)n(C)c1=O | 1.6
COc1ccc(C(=O)Nc2cccc(C(=O)Nc3cccc4ccccc34)c2)cc1[N+](=O)[O-] | -0.15
CCCCNC(=O)c1oc2ccc(S(=O)(=O)N3CCCC(C)C3)cc2c1C (configuration not stated) | -2.2
COc1ccc(C(=O)C2C(c3ccccc3F)C(C#N)(C#N)C3C=Cc4ccccc4N23)cc1 (configuration not stated) | 2.2
Cc1nn(-c2ccccc2)c(OC(=O)C(C)(C)C)c1Sc1ccccc1 | 0.64
CC(C)c1ccc(NC(=O)C2C3C=CC4(O3)C2C(=O)N(C(C)(C)C)C4C(=O)NC2CCCCC2C)cc1 (configuration not stated) | 1.8
CN(C)C(=O)C1C2NC(=S)N(c3ccccc3)C1(C)Oc1ccc(Br)cc12 (configuration not stated) | -0.37
CN(C)CCCOC(=O)c1sc2ccccc2c1Cl | -0.83
O=C(Nc1cccc2ccccc12)C1C(c2ccccc2)=C1c1ccccc1 | 0.63
COc1ccc(C(=O)CSc2nc3c([nH]2)c(=O)n(C)c(=O)n3C)cc1 | 0.59
CCN(CC)S(=O)(=O)c1cccc2cccnc12 | 0.37
CCOC(=O)C1=C(C)NC(=S)NC1c1c(OC)ccc2ccc(OC)cc12 (configuration not stated) | -0.77
Cc1cc(C)n2ncc(C(=O)N3CCN(c4ccc(F)cc4)CC3)c2n1 | -0.39
Cc1cccc(C)c1OCCCCCCN1CCOCC1 | -0.51
CCC1(CC)Cc2ccccc2C(=O)N1 | -0.05
CCOC(=O)C(C)Sc1nc2c(c(-c3cccs3)c1C#N)CCCC2 (configuration not stated) | -0.14
O=C(NCc1ccc(F)cc1)c1n[nH]c(=O)c2ccccc12 | -0.18
Cc1ccc(CCN2CC(C(=O)NCc3ccccc3Cl)CC2=O)cc1 (configuration not stated) | -1.9
O=C1C2C(c3ccc(I)cc3)OC3(C(=O)c4ccccc4C3=O)C2C(=O)N1c1ccc([N+](=O)[O-])cc1 (configuration not stated) | 0.5
O=C(CS(=O)(=O)c1cn(Cc2ccccc2Cl)c2ccccc12)NC1CCCCC1 | -0.57

Of the compounds above, seven contain a furan ring, fused or not.
SMILES | Measles inh
CCOC(=O)c1c(C)oc2c1c1c(c3ccccc32)OCN(CCC2=CCCCC2)C1 | 0.03
O=C(NC(C(=O)O)c1ccccc1)c1cc2ccccc2o1 (configuration not stated) | 0.68
O=C(Nc1ccc(-c2nc3ccccc3o2)cc1)c1ccc([N+](=O)[O-])o1 | -0.96
Cc1ccc2oc(-c3cc(NC(=O)c4ccc([N+](=O)[O-])o4)ccc3O)nc2c1 | 0.9
CC(O)c1ccc(NC(=O)c2cnn3c2NC(c2ccco2)CC3C(F)(F)F)cc1 (configuration not stated) | 0.45
COC(=O)C(NC(=O)c1ccco1)(Nc1nc(C2CC2)cs1)C(F)(F)F (configuration not stated) | 0.08
CCCCNC(=O)c1oc2ccc(S(=O)(=O)N3CCCC(C)C3)cc2c1C (configuration not stated) | -2.2

Other records:
SMILES | Measles inh
O=C(CN1C(=O)C(=O)c2ccccc21)OCN1C(=O)c2ccccc2C1=O | 1.6
CCOC(=O)C1=CN(Cc2ccc(F)cc2)C=C(C(=O)OCC)C1c1ccc(Br)cc1 | 1.3
COc1ccc(C(=O)n2cnc(N)n2)cc1 | 0.73
CCC1CCCCN1C(=O)CSc1cn(Cc2ccccc2C)c2ccccc12 (configuration not stated) | -1.6
CCOCCCn1c(=N)c(C(=O)NCc2ccccc2)cc2c(=O)n3cccc(C)c3nc21 | -0.48
CCC12CN3CC(CC)(CN(C1)C3c1ccc(C)cc1)C2=O (configuration not stated) | 0.47
O=C(COc1ccc(Cl)cc1)Nc1ccc(-c2nc3ncccc3o2)cc1 | -0.45
COc1ccc2cc3cc(C(=O)Nc4cc(Cl)ccc4OC)sc3nc2c1 | 0.92
Cc1c(NC(=O)CCN2C(=O)c3ccccc3C2=O)c(=O)n(-c2ccccc2)n1C | 0.45
COc1ccc(/C(O)=C2\C(=O)C(=O)N(CCCn3ccnc3)C2c2ccccc2F)cc1 (configuration not stated) | -1.1
Cc1cccc(NC(=O)CNS(=O)(=O)c2cccs2)c1 | -0.83
C=CCNC(=O)c1cc(-c2cccs2)on1 | 1
CC(C)(C)C1(O)CC(C(F)(F)F)=NN1C(=O)CCCc1ccccc1 (configuration not stated) | -3
Cc1cc(C)cc(Nc2ncnc3c2cnn3-c2ccccc2)c1 | -0.32
Cc1ccc(N2C(=O)C3Cc4ccccc4CN3C2=S)cc1C (configuration not stated) | 0.82
CCc1c(C)sc(NC(NC(=O)c2ccco2)(C(F)(F)F)C(F)(F)F)c1C#N | 1.7
CS(=O)(=O)N(Cc1ccco1)CC(O)Cn1c2ccccc2c2ccccc21 (configuration not stated) | 0.24
O=c1[nH]c(CN2CCCC3(CCCCC3)C2)nc2c1C1(CCCCC1)Cc1ccccc1-2 | -0.47
COc1ccc(C2C(C(=O)Nc3ccc4c(c3)OCCO4)CCC(=O)N2c2ccc(OC)cc2)cc1 (configuration not stated) | -0.49
CCN(CC)C(=O)c1cc2c(n(-c3ccccc3)c1=O)CCCC2=O | 1.3
CNC(=O)c1ccccc1NC(=O)c1cccc(S(=O)(=O)N2CCOCC2)c1 | -1.2
CC1=C(C(=O)Nc2cccc(C(F)(F)F)c2)C(c2cccc([N+](=O)[O-])c2)C2=C(CCCC2=O)N1 (configuration not stated) | 0.03
NS(=O)(=O)c1ccc(CNC(=O)NC2(c3ccccc3)CC2)cc1 | 1.2
O=S(=O)(c1ccc2nc(-c3ccccc3)[nH]c2c1)N1CCCCCC1 | -0.26
CCOC(=O)c1cnc2c(C)c(Cl)ccc2c1NCc1cccnc1 | -0.89
